rRNA inh HTS – reduced GFP signal of wild-type E. coli, primary screen, bacterial rRNA inhibitor project, GFP/RFP fluorescence, OD600, single point | E. coli WT GFP vs humanized-ribosome RFP mutants, 24 h; active compounds read low; DMSO median 0, no signal -100 | GFP signal change (wild-type ribosome), % (no concentration beside the values) | 350,000 tested, 1.6% active | AID 720706, 2013;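 active means significant combined selectivity score with lowered wild-type GFP, culture density cut under 30%, mutant RFP and density less affected; inactive means any of these conditions unmet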; further: one replicate is shown; some compounds called inactive have numbers as strong as hits
Vif TR-FRET – inhibitors of Vif binding to APOBEC3G peptide, primary screen, biochemical, TR-FRET, GST-Vif 1-94, biotin-A3G peptide, dose response retest (AID 1117319). 260,000 tested, 0.57% active. one-dose inhibition, %; IC50 in µM for titrated hits. Virion infectivity factor (Human immunodeficiency virus type 1 group M subtype B (isolate …. TR-FRET GST-Vif / biotin-A3G peptide binding; higher % means a stronger effect; test concentration not given here; strong numbers were not always called active;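 active means above the screen mean plus three standard deviations and confirmed in dose response; inconclusive means results disagree or hit not tested in dose response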;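 further: Vif residues 1-94 fused to GST binding biotinylated APOBEC3G peptide 110-148; 0% = full assay without inhibitor and 100% = GST in place of GST-Vif; retest series ran down from 100 µM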
AF4-AF9 inh – inhibitors of AF4 peptide binding to AF9, primary screen, biochemical, AlphaScreen, biotin-AF4 peptide, FLAG-AF9, single point | Protein AF-9 (Homo sapiens), P42568 | inhibition, % at 10 µM | AID 651704, 2012 | 350,000 tested, 0.47% active;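 active means every replicate reaching a set inhibition limit, whatever the replicate mean, cut at about 25% in these data; inconclusive means mean inhibition reaches that limit but some replicates miss it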;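 further: 0% = plate neutral control median and 100% = total signal loss; the record names both 10 and 1 µM as test concentration; the first replicate is given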
FGF22 binding – binders of human FGF22 protein, primary screen, FGF22 synaptogenesis inhibitor project, biophysical, thermal shift, single point | recombinant FGF22 thermal shift, SYPRO orange fluorescence; percent of sucrose octasulfate shift, DMSO zero | Fibroblast growth factor 22 (Homo sapiens), Q9HCT0 | AID 651658, 2012 | 340,000 tested, 1.5% active | calls only at 9.99 µM;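 active means melting point raised past a set limit in the mean and every replicate; inconclusive means no clear call; three in four hits are not shown here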
Target sequence (Q9HCT0 whole entry, looked up): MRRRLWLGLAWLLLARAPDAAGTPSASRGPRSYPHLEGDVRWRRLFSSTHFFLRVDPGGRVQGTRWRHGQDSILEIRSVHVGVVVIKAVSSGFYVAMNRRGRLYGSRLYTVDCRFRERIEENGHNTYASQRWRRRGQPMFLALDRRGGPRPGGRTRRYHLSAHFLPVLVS
ALR H2O2 inh – inhibitors of human ALR sulfhydryl oxidase, primary screen, biochemical, H2O2 detection, HRP-luminol luminescence, single point | FAD-linked sulfhydryl oxidase ALR (Homo sapiens), P55789 | purified ALR, DTT oxidation | inhibition, % (test concentration not listed) | 290,000 tested, 3.8% active | AID 485317, 2010;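 active means mean and each replicate at 75% or more; inconclusive means only one of the two met; inactive means neither met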;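 further: stock transfer was 7.5 nL into about 7.5 µL; 0% = neutral wells and 100% = wells with inactivated enzyme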
Target sequence (P55789 whole entry, looked up): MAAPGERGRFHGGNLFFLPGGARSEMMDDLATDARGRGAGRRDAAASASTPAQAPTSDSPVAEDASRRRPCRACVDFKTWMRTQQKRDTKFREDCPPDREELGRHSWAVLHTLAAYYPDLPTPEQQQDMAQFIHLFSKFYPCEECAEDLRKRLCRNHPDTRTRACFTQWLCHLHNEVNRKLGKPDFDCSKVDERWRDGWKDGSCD
E coli growth – E. coli growth inhibition, primary screen, OD600; Escherichia coli growth, 23 h; active compounds read low; OD600 absorbance (concentration not given with the values); 330,000 tested, 0.21% active; AID 1053175, 2014;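 active means OD600 absorbance below the run mean of sample wells minus 3.6 SD, in any replicate, cut at about 0.56 in these data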;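 further: stock transfer was 300 nL into about 60 µL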
HNF4A DNA FP – change in binding of human HNF4A to DNA, primary screen, biochemical, fluorescence polarization, FITC-DNA; Hepatocyte nuclear factor 4-alpha (Homo sapiens), P41235; 1 h; activity change, % at 10 µM; 360,000 tested, 0.3% active; AID 1224865, 2016; in the data active means activity change above about 30%, passing the limit was not always enough;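 further: controls were the assay level and a saturating level of protein; the project sought stronger binding though the title names inhibitors; some compounds called inactive have numbers as strong as hits; positive values seem to mean higher polarization but the record does not say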
Target sequence (P41235 whole entry, looked up): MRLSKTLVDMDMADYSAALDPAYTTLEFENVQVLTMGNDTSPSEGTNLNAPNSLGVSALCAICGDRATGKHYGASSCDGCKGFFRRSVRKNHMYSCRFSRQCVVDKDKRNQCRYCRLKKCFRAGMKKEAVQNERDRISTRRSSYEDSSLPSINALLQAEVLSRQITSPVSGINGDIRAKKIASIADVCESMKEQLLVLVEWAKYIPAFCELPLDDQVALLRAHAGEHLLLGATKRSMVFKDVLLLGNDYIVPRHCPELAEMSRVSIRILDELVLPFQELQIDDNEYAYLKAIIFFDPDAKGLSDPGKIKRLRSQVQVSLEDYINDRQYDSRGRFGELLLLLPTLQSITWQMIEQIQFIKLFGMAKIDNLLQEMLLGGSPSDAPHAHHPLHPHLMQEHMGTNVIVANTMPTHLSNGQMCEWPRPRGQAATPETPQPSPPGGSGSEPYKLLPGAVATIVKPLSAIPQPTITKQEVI
rRNA inh HTS OD600 – also measured in rRNA inh HTS; calls as there; OD600 change, %; measured here: OD600 growth;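 optical density of the mix in the first replicate; 0 = DMSO median and -100 = no signal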
rRNA inh HTS RFP – recorded beside rRNA inh HTS, whose call it bears; RFP signal change, %; measured here: RFP humanized mutant strains;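 first replicate; 0 = DMSO median and -100 = no signal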
Numbers without * were called inactive; i = inactive; ? = inconclusive; . = not tested or not shown; & = joins results of further samples. Not all compounds are listed (hit frequency here may not be typical).

SMILES | rRNA inh HTS | rRNA inh HTS OD600 | rRNA inh HTS RFP | Vif TR-FRET | AF4-AF9 inh | FGF22 binding | ALR H2O2 inh | E coli growth | HNF4A DNA FP
CN(C)CC#Cc1ccc([C@H]2[C@H](CO)N3CCCCN(C(=O)C4CCC4)C[C@@H]23)cc1 | 4 | 6 | -4.5 | . | -1.5 | i | . | . | .
CCCC(=O)N(CCN1CCOCC1)c1nc2c(OC)ccc(C)c2s1 | -7 | -16 | -4.3 | 1% | 1.6 | i | -29 | 0.66 | 1.8
Cc1cccc(-n2ncc3c(=O)[nH]c(SCC(=O)NCCC4=CCCCC4)nc32)c1 | 0 | 13 | 1.9 | -15% | 1.6 | i | . | 0.7 | 5.2
O=C(N[C@H]1CC[C@@H](CC(=O)N2CCOCC2)O[C@@H]1CO)c1cccc(F)c1 | 1 | 6 | 0.2 | . | -2.6 | i | . | . | .
C[C@@H]1CN([C@H](C)CO)C(=O)c2cc(N(C)C)ccc2O[C@@H](C)CCCCO[C@@H]1CN(C)C(=O)Nc1cccc2ccccc12 | 0 | -1 | -0.9 | . | 8.5 | i | . | . | .
CN(C)c1nc(N(C)C)nc(N2CC(CCl)OC2=N)n1 (stereo not drawn) | 3 | 10 | -0.8 | -2% | -0.2 | i | -4 | 0.67 | -3.5
O=C1NC[C@@H](Cc2ccc(O)cc2)N(CCc2cccc3ccccc23)C1=O | -18 | -5 | -3.4 | . | -13 | i | 7 | . | 2.1
CCC(C)[C@H](NC(=O)[C@@H]1Cc2ccccc2CN1)C(=O)NCc1ccc(C)cc1 (stereo partly drawn) | 2 | 4 | 10 | -3% | 2.3 | i | . | . | -3.8
O=C1CCCCC1(CCc1ccncc1)CCc1ccncc1 | -17 | -27 | -3.5 | -2% | 6.3 | i | . | 0.66 | -0.7
COc1ccc(-c2noc(CSc3nnc(CCc4ccccc4)n3-c3ccccc3)n2)cc1OC | -15 | -19 | 20 | -3%&0% | 6.0 | i | 0 | 0.68 | 3.7
O=C(NCc1c(F)cccc1F)c1cc(COc2c(F)cccc2F)on1 | -1 | 0 | 0.6 | 9% | 0.6 | i | . | 0.72 | -1.1
Cn1nc(C(F)(F)F)c(-c2ccc(F)cc2)c1NC(=O)c1ccco1 | -18 | -13 | -2.8 | -11% | -3.6 | i | . | 0.7 | -2.8

Part of the list above, as comma-separated lines:
SMILES,rRNA inh HTS,rRNA inh HTS OD600,rRNA inh HTS RFP,Vif TR-FRET,AF4-AF9 inh,FGF22 binding,ALR H2O2 inh,E coli growth,HNF4A DNA FP
Cc1cccc(-n2ncc3c(=O)[nH]c(SCC(=O)NCCC4=CCCCC4)nc32)c1,0,13,1.9,-15%,1.6,i,.,0.7,5.2
CN(C)c1nc(N(C)C)nc(N2CC(CCl)OC2=N)n1 (stereo not drawn),3,10,-0.8,-2%,-0.2,i,-4,0.67,-3.5
O=C(N[C@H]1CC[C@@H](CC(=O)N2CCOCC2)O[C@@H]1CO)c1cccc(F)c1,1,6,0.2,.,-2.6,i,.,.,.

The results go on.
SMILES | rRNA inh HTS | rRNA inh HTS OD600 | rRNA inh HTS RFP | Vif TR-FRET | AF4-AF9 inh | FGF22 binding | ALR H2O2 inh | E coli growth | HNF4A DNA FP
CCOC(=O)c1ccc(N2CSC3=C(C#N)C(c4ccc(OC)cc4OC)CC(=O)N3C2)cc1 (stereo not drawn) | 2 | 4 | -1.3 | 10% | 1.2 | i | 0 | 0.74 | -0.2
Cc1c(Br)c([N+](=O)[O-])nn1CCCC(=O)Nc1sc2c(c1C(N)=O)CCC(C)C2 (stereo not drawn) | . | . | . | . | . | . | -15 | 0.71 | 3.3
O=C(CCN1CCCCC1)NCC[C@H]1CC[C@H](NS(=O)(=O)c2cccc(F)c2)[C@@H](CO)O1 | -2 | 2 | -1.4 | . | 0.7 | i | . | . | .
Cc1c(NC(=O)c2cc(C3CC3)on2)c(=O)n(-c2ccccc2)n1C | -4 | -14 | -2.1 | -2% | -0.6 | i | -10 | 0.69 | -3.3
COc1ccc(N2CCC(CNC(=S)Nc3cc(C)cc(C)c3)C2)cc1 (stereo not drawn) | -1 | -4 | 13 | ? | 22 | i | 20 | 0.65 | 11
O=C(Nc1ccc2c(c1)nc1n2CCN(C2CCCCC2)C1)c1ccco1 | 0 | 5 | 15 | 4% | -2.6 | i | . | 0.66 | 7.5
O=C(O)c1nnn(-c2ccc(F)cc2F)c1-c1ccccc1 | 7 | 14 | 0.0 | -5% | -0.3 | i | 27 | 0.68 | 2.3
COc1ccc(NS(=O)(=O)c2cc([N+](=O)[O-])ccc2N/N=C/c2c(C)[nH]c3ccccc23)cc1 | 15 | 16 | 0.9 | 1% | 5.2 | i | . | 0.72 | 77*
O=C(Nc1cc(S(=O)(=O)N2CCOCC2)ccc1Cl)C(=O)c1c(-c2ccccc2)cc2ccccn12 | . | . | . | -8% | . | . | -9 | 0.75 | 2.4
C=CCSc1nc(N2CCOCC2)c2c(c1C#N)CC(C)(C)N(C)C2 | -11 | -17 | -3.9 | 0% | -8.7 | i | . | 0.68 | -3.2
COc1cc2[nH]c(=O)n(CCCCCC(=O)NC3CCCC3)c(=O)c2cc1OC | 5 | 6 | -1.3 | . | -4.4 | i | 0 | 0.73 | 0.8
OC(c1ccccc1)c1nc(/C=C/c2ccc(C(F)(F)F)cc2)cs1 (stereo not drawn) | 6 | 6 | 1.4 | . | 1.0 | i | . | . | -4.6

Quoted from above (5 entries):
SMILES | rRNA inh HTS | rRNA inh HTS OD600 | rRNA inh HTS RFP | Vif TR-FRET | AF4-AF9 inh | FGF22 binding | ALR H2O2 inh | E coli growth | HNF4A DNA FP
Cc1c(NC(=O)c2cc(C3CC3)on2)c(=O)n(-c2ccccc2)n1C | -4 | -14 | -2.1 | -2% | -0.6 | i | -10 | 0.69 | -3.3
COc1ccc(N2CCC(CNC(=S)Nc3cc(C)cc(C)c3)C2)cc1 (stereo not drawn) | -1 | -4 | 13 | ? | 22 | i | 20 | 0.65 | 11
O=C(Nc1ccc2c(c1)nc1n2CCN(C2CCCCC2)C1)c1ccco1 | 0 | 5 | 15 | 4% | -2.6 | i | . | 0.66 | 7.5
O=C(O)c1nnn(-c2ccc(F)cc2F)c1-c1ccccc1 | 7 | 14 | 0.0 | -5% | -0.3 | i | 27 | 0.68 | 2.3
COc1ccc(NS(=O)(=O)c2cc([N+](=O)[O-])ccc2N/N=C/c2c(C)[nH]c3ccccc23)cc1 | 15 | 16 | 0.9 | 1% | 5.2 | i | . | 0.72 | 77*

(more compounds)
SMILES | rRNA inh HTS | rRNA inh HTS OD600 | rRNA inh HTS RFP | Vif TR-FRET | AF4-AF9 inh | FGF22 binding | ALR H2O2 inh | E coli growth | HNF4A DNA FP
O=C(/C=C/NCc1cccnc1)c1ccc(-c2ccccc2)cc1 | -4 | -4 | -3.7 | -3% | -1.5 | i | 8 | 0.64 | -2.2
Cc1nn(-c2ccc(F)cc2)c(Cl)c1/C=C(/CCC(=O)O)c1nc2ccccc2s1 | -52 | -76 | -18 | -2% | -3.4 | i | . | 0.68 | 1.6
CCN(CC)C(=O)C(=O)c1cn(CC(=O)N2CCc3ccccc3C2)c2ccccc12 | 13 | 5 | 2.0 | ? | -0.5 | . | 43 | 0.7 | -2.0
Cc1c(N/N=C(\C#N)C(=O)c2ccccc2)c(=O)n(-c2ccccc2)n1C | . | . | . | 13% | 4.5 | i | . | 0.72 | -5.5
C[C@@H](O)C#Cc1ccc2c(c1)O[C@H](CN(C)C(=O)C1CCCCC1)[C@@H](C)CN([C@@H](C)CO)S2(=O)=O | -5 | -4 | 0.6 | . | 1.4 | i | . | . | .
O=C(C[C@@H]1CC[C@H]2[C@@H](COC[C@@H](O)CN2C(=O)Nc2cccc(Cl)c2)O1)NCCCN1CCOCC1 | -59 | -80 | -18 | . | -0.8 | i | . | . | .
CCc1ccc(-c2cc(C)no2)cc1S(=O)(=O)NCCc1ccccc1 | -6 | -32 | -3.4 | . | -21 | i | -3 | 0.71 | 1.1
C[C@@H]1CN([C@@H](C)CO)C(=O)c2cc(NS(=O)(=O)c3cn(C)cn3)ccc2O[C@@H](C)CCCCO[C@@H]1CN(C)C(=O)NC1CCCCC1 | 2 | 2 | -1.9 | . | -0.9 | i | . | . | .
O=[N+]([O-])c1cc(/C=N/N2CCCCC2)ccc1Cl | -4 | -13 | -5.5 | 10% | 14 | i | 3 | . | 4.1
Cc1cc(C(=O)Nn2c(C3CCCCC3)nc3ccccc3c2=O)ccc1[N+](=O)[O-] | 10 | 11 | -1.9 | . | -1.8 | i | 1 | 0.73 | 1.6
O=C(COc1ccccc1)N=C1SC2CS(=O)(=O)CC2N1c1ccccc1 (stereo not drawn) | 6 | 6 | -0.7 | . | -1.1 | i | -2 | 0.7 | -1.1
CCOC(=O)c1c(C)nc(C)c(C(=O)OCC)c1-c1ccc(OC)cc1 | -38* | -30* | -10* | 19%&5% | 4.9 | i | -2 | 0.73 | 0.9
C#CC(C)(C)NC(=O)c1ccccc1OC | . | . | . | 9% | . | . | 21 | 0.73 | -1.5
COc1cc(-c2coc3c(C(=O)NC4CCCCC4)cccc23)ccc1O | -24 | -36 | -13 | . | 0.6 | i | . | . | -4.7
Cc1ccccc1C(=O)N1CCC2CC1c1cc(-c3ccc(F)cc3)ccc12 (stereo not drawn) | -8 | -16 | 3.0 | -1% | 0.6 | i | . | . | -1.1
COCC(=O)N1C[C@H](C)[C@@H](OC)CN(C)C(=O)c2cc(NS(C)(=O)=O)ccc2OC[C@@H]1C | 1 | 6 | -0.6 | . | 1.0 | i | . | . | .
Cc1[nH]c(=S)[nH]c(=O)c1CCC1OCCO1 | 14 | 15 | 0.5 | . | -2.2 | i | 20 | 0.69 | -0.5
COc1ccc(C(O)(C(C)C)C(CN2CCOCC2)c2ccc(Cl)cc2)cc1 (stereo not drawn) | -35 | -56 | 6.2 | -7% | 12 | i | 2 | 0.68 | 0.9
Cc1ccc(C(=O)N(C)Cc2nc3ccccc3c(=O)[nH]2)cc1NC(=O)c1ccco1 | 6 | 14 | -0.4 | 13% | 0.1 | i | -1 | 0.7 | 1.3
C=CCn1c(=O)c2ccccc2n2c(SCC(=O)O)nnc12 | 4 | 12 | -2.7 | -5% | 0.8 | i | -11 | 0.69 | 6.7
CC(C)NC(=O)N[C@@H]1C=C[C@@H](CC(=O)O)O[C@@H]1CO | 5 | -1 | -1.1 | . | 0.0 | i | . | . | .

Screens: PubChem, several laboratories
